Screening data from PubChem BioAssay.
D2 potentiator: potentiates the human D2 dopamine receptor allosterically. potentiation, % (concentration not given with the values). 360,000 compounds, 0.23% hits. DiscoveRx D2 beta-arrestin cells, luminescence, 90 min; 100% = 57 uM dopamine signal; active = potentiation of 50% or more; inconclusive = 30% to 50%; inactive = 30% or less;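 also: tested on top of an EC20 dose of dopamine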
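PathHunter D2 cells, attached overnight at 37 deg C, received compound in DMSO plus dopamine at EC20 (50 nM final) for 90 min at 37 deg C. Beta-arrestin recruitment was read as luminescence after 1 h with detection reagent at ambient temperature.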
Sfp PPTase inh: blocks B. subtilis Sfp PPTase activity; Q9F4F7; Potency, µM, for the others: max response, negative = inhibition, actives largely listed as inhibitors; AID 1490; Biochemical Sfp PPTase activity, qHTS; 310,000 compounds, 3.5% hits; active = well fitted inhibition curve with a large enough effect; inconclusive = small, poorly fitted or top-dose-only effect, or another doubt; inactive = no such curve, though single readings can be large or run the other way;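 also: the enzyme is Sfp with the accession as filed and its product quenches rhodamine fluorescence; potency is read from the fitted curve at half-maximal effect; 0% = enzyme reaction without inhibitor and -100% = no enzyme wells; top concentration of the series not given in the record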
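Buffer: 50 mM Hepes-Na pH 7.6, 10 mM MgCl2, 0.01% Nonidet P-40, 0.01% BSA. Enzyme 15 nM, pre-exposed to compound 15 min; substrates then added and fluorescence change tracked over 30 min.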
TRPV1 PAM: potentiators of human vanilloid receptor 1 (TRPV1). potentiation, % at 8.33 µM. 320,000 compounds, 0.02% hits. AID 540277. Q8NER1. TRPV1-expressing cells, Fluo-8 calcium influx, capsaicin EC20 potentiation; host cell line not named in the record; control for the full effect not named in the record; active means potentiation above 80%; inconclusive means 30% to 80%; inactive means below 30%; also: 0% is about no effect
Target sequence (Q8NER1 whole entry, looked up): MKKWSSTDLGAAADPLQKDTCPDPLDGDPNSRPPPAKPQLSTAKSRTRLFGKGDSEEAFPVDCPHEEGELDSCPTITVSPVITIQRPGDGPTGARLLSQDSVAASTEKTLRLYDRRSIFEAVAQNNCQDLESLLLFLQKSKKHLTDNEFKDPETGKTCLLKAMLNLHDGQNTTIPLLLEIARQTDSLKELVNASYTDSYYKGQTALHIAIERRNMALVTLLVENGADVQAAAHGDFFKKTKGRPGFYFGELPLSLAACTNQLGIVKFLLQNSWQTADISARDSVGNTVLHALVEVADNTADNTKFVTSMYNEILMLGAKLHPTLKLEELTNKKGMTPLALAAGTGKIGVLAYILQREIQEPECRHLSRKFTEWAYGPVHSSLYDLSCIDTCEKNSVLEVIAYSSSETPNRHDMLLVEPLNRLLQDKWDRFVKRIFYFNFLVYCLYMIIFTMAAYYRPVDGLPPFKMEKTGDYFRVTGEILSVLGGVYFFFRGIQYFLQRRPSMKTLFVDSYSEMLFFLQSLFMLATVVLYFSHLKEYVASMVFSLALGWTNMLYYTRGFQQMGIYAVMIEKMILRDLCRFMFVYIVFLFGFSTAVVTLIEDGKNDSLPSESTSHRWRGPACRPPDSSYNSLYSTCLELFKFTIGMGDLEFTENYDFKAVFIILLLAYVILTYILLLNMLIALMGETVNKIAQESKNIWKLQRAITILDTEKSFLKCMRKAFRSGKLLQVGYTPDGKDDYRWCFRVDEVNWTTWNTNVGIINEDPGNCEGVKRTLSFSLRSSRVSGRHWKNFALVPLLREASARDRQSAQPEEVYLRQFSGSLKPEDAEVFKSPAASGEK
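Cells expressing TRPV1 were dye-loaded with Fluo-8 and read kinetically: 10 s baseline, 3 min after compound (agonist portion), then 2 min after EC20 capsaicin (allosteric enhancer portion). Calcium-bound dye fluorescence at 480/520 nm.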
Six1-Eya2 blk: inhibitors of human Six1/Eya2 interaction. 360,000 compounds, 0.56% hits. activity change, % (test concentration not listed). AlphaScreen GST-Six1/His-Eya2 binding, biochemical; hits give low values; control for the full effect not named in the record. Q15475+O00167; in the data active = activity change below about -65%; inconclusive = about -30% to -65%; inactive = above about -30%; also: % is scaled to controls: 0 for no effect and ±100 for the full control effect
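Homogeneous AlphaScreen proximity assay pairing GST-Six1 with His-tagged Eya2 (added as 5X mix: 250 nM and 500 nM) in 50 mM Tris pH 8.0, 300 mM NaCl, 1 mM TCEP. Glutathione donor and nickel acceptor beads; 1 h, 37 °C, dark.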
CtBP-E1A inh: CtBP/E1A binding inhibition. AID 651724. activity change, % (no concentration beside the values). 340,000 compounds, 0.49% hits. AlphaScreen GST-E1A/His-CtBP binding, 1536-well; hits give low values; control for the full effect not named in the record; in the data active means activity change below about -65%; inconclusive means about -30% to -65%; inactive means above about -30%; also: % is scaled to controls: 0 for no effect and ±100 for the full control effect
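Protein mix (5X: 125 nM each GST-E1A, His-CtBP) was incubated with pinned compound 2 h at 37 deg C in dark, in 50 mM Tris pH 8.0 buffer with 300 mM NaCl. Glutathione donor and nickel acceptor beads followed; AlphaScreen signal read after 1 h.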
D2 agonist: agonists of human D2 dopamine receptor (beta-arrestin). P14416. DiscoveRx PathHunter D2 beta-arrestin, luminescence, 90 min; 100% = 57 uM dopamine signal. activation, % (no concentration beside the values). 360,000 compounds, 0.084% hits. AID 624465; in the data active = activation above about 40%; inconclusive = about 15% to 40%; inactive = below about 15%; also: compound concentration not given in the record; the text of the record calls up to 30% inactive
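DiscoveRx PathHunter D2 beta-arrestin cells (2,100/well) attached overnight, then compound-stimulated 90 min at 37 C in HBSS/10 mM HEPES/0.1% Tween-20 buffer; beta-galactosidase complementation read by luminescence after 1 h at ambient temperature. Dopamine 57 uM final (EC100) as control.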
PINK1 expr mod: changes PINK1 expression. AID 624263. PINK1 immunofluorescence, high-content cytometry, 24 h. 410,000 compounds, 0.2% hits. Potency, µM (doses to about 76.6 µM), inactives show at the top dose activation (PINK1 increase), actives largely listed as activators; active = well fitted activation curve with a large enough effect; inconclusive = small, poorly fitted or top-dose-only effect; inactive = flat fitted curve, though single readings scatter; cell line not stated here;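 also: potency is read from the fitted curve at half-maximal effect; % of control where 0% means no effect; nearly all actives have a fitted effect of over 65% in size; a mitochondrial uncoupler was the plate control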
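Cells are seeded, rested 12 hours, then given compound at five concentrations or DMSO for 24 hours. After fixation, blocking and antibody staining, PINK1 amount and mitochondrial localization are scored; CCCP serves as control.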
An asterisk follows results filed as active; ? = inconclusive; / = no result given; & = joins results of further samples; [ ] = dose if it differs, or a comment.

Second line of a record – D2 potentiator | Sfp PPTase inh | TRPV1 PAM | Six1-Eya2 blk | CtBP-E1A inh | D2 agonist | PINK1 expr mod
O=C(CSc1ncnc2c1cnn2CCc1ccccc1)Nc1cccc(C(F)(F)F)c1
 : -3 | ? | 1 | -1 | 8 | 1.5 | 7.3%
CC(=O)NS(=O)(=O)c1ccc(NC(=O)/C=C/c2ccccc2Cl)cc1
 : 10 | 29% | 0 | -22 | -10 | -3.4 | -0.7%
Cc1c(C(=O)NCc2ccc(Cl)c(Cl)c2)sc(=O)n1Cc1ccccc1F
 : -4 | / | / | -4 | 5 | 8.1 | -0.5%
CCOC(=O)c1cc2c(=O)n3ccccc3nc2n(CCOC)c1=NC(=O)c1c(-c2c(F)cccc2Cl)noc1C
 : -5 | 10% | 5 | 3 | -9 | -7.8 | 1.9%&13%
COc1ccccc1C(=O)Nc1ccc(S(=O)(=O)NC2=NCCCCC2)cc1
 : -2 | 20% | 7 | 1 | -14 | 0.5 | 2.2%
CC[C@]1(c2ccccc2)C(=O)N(C(=O)OC)N1C(=O)OC
 : -7 | -23% | ? | 6 | -19 | -2.1 | 1.2%
CCOc1ccccc1N1CCN(C(=O)c2ccccc2SCC(=O)N2CCCC2)CC1
 : -6 | 7% | 16 | 3 | 7 | 2.3 | 4.0%
Nn1c(Cc2cccc3ccccc23)nnc1SCn1nnc2ccccc2c1=O
 : 3 | 4% | 2 | -6 | 2 | -5.1 | -0.1%
COc1cc(/C=C2\SC(=S)N(CCC(=O)Nc3ccccc3)C2=O)cc(OC)c1OC
 : 6 | ? | 25 | -9 | -8 | 4.2 | 2.8%
CCOC(=O)C1C(c2ccccc2)NC(=S)NC1(C)O (stereo not drawn)
 : -3 | -12% | 9 | -1 | 0 | 0.1 | 0.5%
Cc1ccc(-n2nc3c(=O)n(C(C)C(=O)NCCCc4ccccc4)nc(C)c3c2C)cc1 (stereo not drawn)
 : -9 | -3% | 1 | -1 | 3 | 3.8 | 0.0%
COc1ccc(-c2cc(C(F)(F)F)c(C#N)c(=O)[nH]2)cc1
 : 6 | 26% | 24 | -3 | -6 | -4.0 | 0.3%
Cc1cccc(C(=O)OCC(=O)N(C)c2ccccc2)c1C
 : -5 | 4% | -9 | 6 | -2 | -3.3 | 0.0%
COc1cccc(Nc2nc(-c3ccccc3O)nc3ccccc23)c1
 : -17 | 0% | 21 | -1 | -12 | 2.2 | 7.5%
Cc1ncc(CO)c2c1Oc1nc(-c3ccccc3F)nc(SCC(=O)N(C)c3ccccc3)c1C2
 : ? | -19% | -1 | -11 | 5 | 14 | -1.1%

Second line of a record – D2 potentiator | Sfp PPTase inh | TRPV1 PAM | Six1-Eya2 blk | CtBP-E1A inh | D2 agonist | PINK1 expr mod
NC(=O)c1cccnc1Nc1cccc([N+](=O)[O-])c1
 : -4 | 2% | 0 | 1 | -1 | -4.9 | -0.9%
COCCCn1nnnc1SCC(=O)N1c2ccccc2CC1C (stereo not drawn)
 : 8 | 18% | -3 | 3 | / | -2.3 | 1.6%
CCOC(=O)CC1C(=O)NCCN1S(=O)(=O)c1ccc(NC(C)=O)cc1 (stereo not drawn)
 : -13 | 10% | -1 | 3 | 0 | 7.9 | -0.5%
c1ccc(-c2nc3ccccn3c2-c2ccccc2)cc1
 : -6 | / | / | 2 | -3 | -2.2 | 3.3%
C/C(=N\NC(=O)c1nn(C)c(C)c1Br)c1ccc(NC(=O)c2ccccc2F)cc1
 : -15 | 23% | -3 | 1 | -2 | -2.2 | 13%
CCN(CC)S(=O)(=O)c1ccc(N2CCOCC2)c(NC(=O)c2ccc(C#N)cc2)c1
 : -5 | -10% | -1 | 4 | / | -6.9 | -1.9%
O=C1ON=C(c2ccccc2)/C1=C/c1ccc(O)cc1
 : -2 | 50µM* | 6 | 18 | / | -4.7 | -0.3%
COc1cc(C(C)=O)ccc1OC(C)C(=O)Nc1ccc(S(=O)(=O)N2CCCC2)cc1 (stereo not drawn)
 : 2 | / | 2 | 8 | 4 | -3.1 | 9.9%
CCOc1cc(N2CCOCC2)c(OCC)cc1NC(=O)COC(=O)c1c(CC)noc1C
 : -7 | / | / | -8 | -13 | 3.3 | 3.9%
c1ccc(Cn2nnnc2C(c2cccs2)N2CCOCC2)cc1 (stereo not drawn)
 : -6 | 3% | -12 | 2 | 1 | -1.9 | -2.4%
O=C(CCNS(=O)(=O)c1ccccc1C(F)(F)F)N1CCN(C(c2ccccc2)c2ccccc2)CC1
 : -12 | / | -9 | -11 | -7 | -0.2 | 0.7%
Cc1ccc(S(=O)(=O)N2CCCC(C(=O)N(Cc3cccs3)C3CC3)C2)cc1 (stereo not drawn)
 : -18 | 11% | -25 | -4 | 0 | 0.3 | -1.2%
O=C(CC12CC3CC(CC(Br)(C3)C1)C2)Nc1nncs1
 : -2 | 7% | 3 | 3 | 0 | -2.8 | 0.0%
CCn1c(C)[n+](Cc2ccccc2)c2ccc(Cl)cc21
 : -9 | -10% | 7 | 2 | 14 | -3.0 | 0.9%
O=C1/C(=C/C=C/c2ccco2)SC(=S)N1NS(=O)(=O)c1ccccc1
 : -13 | 13µM* | ? | ? | -15 | -4.9 | 2.5%

Second line of a record – D2 potentiator | Sfp PPTase inh | TRPV1 PAM | Six1-Eya2 blk | CtBP-E1A inh | D2 agonist | PINK1 expr mod
CCCCN(C(=O)CC(c1ccccc1)c1ccccc1)c1c(N)n(CCC)c(=O)[nH]c1=O
 : -7 | 33%[activator] | -1 | -8 | -24 | -6.0 | -2.1%
Cc1nn(CCCC(=O)Nc2sc3c(c2C#N)CCC3)c(C)c1[N+](=O)[O-]
 : -3 | ? | 1 | -8 | 5 | -0.7 | 1.6%[38.3 µM]
CN1CCC(=NNC(=O)c2ccc(N(Cc3ccc(Cl)cc3)S(C)(=O)=O)cc2)CC1
 : 13 | 16% | -1 | 0 | -4 | 9.0 | -0.9%
Nc1ccn(C2CCCCO2)c(=O)n1 (stereo not drawn)
 : -3 | / | / | 8 | 3 | -1.4 | -0.9%
O=C(O)c1cc(=O)cc(C(=O)O)[nH]1
 : -7 | 40µM* | 29 | -13 | -13 | -1.7 | -4.4%[38.3 µM]
O=C(NCCN1CCCC1)c1ccc2c(c1)N(Cc1cccc(Cl)c1)C(=O)c1ccccc1S2(=O)=O
 : -29 | 2% | -1 | 19 | -2 | 11 | -0.6%
CC1N(C)c2cccc3cccc(c23)N1C
 : 26 | -11% | 1 | ? | -6 | 7.6 | 3.6%
Cc1cnc(C(=O)NCC(c2ccccc2)c2ccccc2)cn1
 : -9 | -2% | -21 | -5 | -6 | -3.4 | -0.4%
O=C(O)c1c2c(nc3ccccc13)CCCCC2
 : -10 | 1% | 4 | 2 | 15 | 0.8 | -0.7%
COc1ccc2nc(N(CCN(C)C)C(=O)c3ccc(C(=O)c4ccccc4)cc3)sc2c1
 : -16 | ? | -3 | -25 | -24 | -7.4 | 1.1%
Cc1cc(=O)c(C(=O)O)nn1-c1ccccc1C(F)(F)F
 : -6 | 11% | 14 | 5 | 0 | -2.5 | 0.1%
CCOc1ccc(CCN2C(=S)N([C@@H](CC(C)C)CN3CCC[C@@H]3CN3C(=S)NC[C@@H]3Cc3ccc(O)cc3)C[C@@H]2CC(C)C)cc1
 : -2 | / | / | -18 | -11 | 1.8 | 2.5%
CC(=O)Oc1ccc([N+](=O)[O-])cc1N1C(=O)c2ccccc2C1=O
 : -20 | 5% | 4 | 13 | -1 | -5.5 | -1.0%
COC(=O)c1cc(=O)nc2sc3ccccc3n12
 : 5 | 13% | -5 | -1 | -3 | -2.0 | -1.7%
COc1cccc(Sc2cc(N3CCOCC3)nc(-c3ccccc3)n2)c1
 : -20 | 6% | 20 | 35 | 8 | 3.3 | 2.2%

Second line of a record – D2 potentiator | Sfp PPTase inh | TRPV1 PAM | Six1-Eya2 blk | CtBP-E1A inh | D2 agonist | PINK1 expr mod
Cc1ccc(N2C(=O)CC(Cc3cc(C)cc(C)c3)C2=O)cc1 (stereo not drawn)
 : -7 | 14% | -4 | 1 | 3 | -1.5 | 0.1%
COC(=O)C1(CCSC)NC(c2ccco2)C2C(=O)N(C)C(=O)C21 (stereo not drawn)
 : -6 | 14% | -1 | 2 | 2 | -0.8 | -1.2%
COc1ccc(NC(=O)c2cc(C)nn2-c2ccccc2)cc1
 : -6 | 2% | ? | 1 | 12 | -2.1 | 14%
CC(C)C(=O)Nc1c2c(nn1-c1ccc([N+](=O)[O-])cc1)CS(=O)(=O)C2
 : 3 | 21% | 10 | 5 | -16 | 0.0 | 1.2%
c1ccc(-n2ncc3c(N4CCC5(CC4)OCCO5)ncnc32)cc1
 : -5 | 28% | 6 | 9 | -1 | -3.9 | 6.5%
COc1ccc(CNC(=O)Nc2nc(C(N)Cc3ccc(F)cc3)cs2)cc1 (stereo not drawn)
 : -1 | / | / | -16 | -14 | 6.6 | -1.2%
O=C(N=Nc1c(O)[nH]c2ccc([N+](=O)[O-])cc12)c1cc(-c2ccccc2Cl)nc2ccccc12
 : -4 | 2% | -6 | -3 | -9 | 0.4 | 8.6%
COc1ccccc1NC(=O)c1ccc(NC(=O)CNC(=O)c2ccc(OC)c(OC)c2)cc1
 : 0 | -7% | 23 | -8 | 2 | 2.9 | 15%
CC(C)CC(=O)NC(=S)NNC(=O)c1cccc([N+](=O)[O-])c1
 : -8 | -13% | 7 | -2 | 7 | -10 | 6.2%

3 structures from above, ordered by molar mass, falling:
Second line of a record – D2 potentiator | Sfp PPTase inh | TRPV1 PAM | Six1-Eya2 blk | CtBP-E1A inh | D2 agonist | PINK1 expr mod
O=C(N=Nc1c(O)[nH]c2ccc([N+](=O)[O-])cc12)c1cc(-c2ccccc2Cl)nc2ccccc12
 : -4 | 2% | -6 | -3 | -9 | 0.4 | 8.6%
COC(=O)C1(CCSC)NC(c2ccco2)C2C(=O)N(C)C(=O)C21 (stereo not drawn)
 : -6 | 14% | -1 | 2 | 2 | -0.8 | -1.2%
c1ccc(-n2ncc3c(N4CCC5(CC4)OCCO5)ncnc32)cc1
 : -5 | 28% | 6 | 9 | -1 | -3.9 | 6.5%
